# Screening data from PubChem BioAssay.
# AID923: qHTS Assay for Allosteric/Competitive Inhibitors of Caspase-1: Spectroscopic Profiling in AFC Spectral Region; compound fluorescence, AFC spectral region (405/520 nm); almost no hit is shown here; Potency, µM (titrated, usually from 57.5 µM), inactives show top-dose fluorescence increase, hits mostly activators; hit rate 1.1% among 75,000; AID 923, 2007; active means well fitted activation curve with a large enough effect; inconclusive means small, poorly fitted or top-dose-only effect;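 further: potency means the concentration at half of the fitted maximal effect; 0% is about no effect; scaled to a free AFC standard on each plate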
#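 Compound autofluorescence profiled at 405 nm ex/520 nm em during kinetic caspase 1 run (50 nM enzyme, 5 uM Ac-WEHD-AFC, HEPES pH 7.5, 10 mM DTT). Titration up to 57 uM; baseline from regression intercept, normalized to AFC standard curve.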
# A488 autofl: compound fluoresces in the A488 spectral region. compound autofluorescence, A488 spectral region, dye equivalency; stronger effect = higher value. max dye equivalency, M. hit rate 0.1% among 59,000; active = above 10 nM dye equivalent; inconclusive = 1 to 10 nM; inactive = 1 nM or less; about half of its hits are not listed in these tables;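 further: highest value over a series up to 38 µM; compound alone in buffer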
#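 Compounds pin-transferred into 100 mM Tris buffer, pH 8.0, incubated 15 min at room temperature, then imaged with 480 nm excitation/540 nm emission filters. Fluorescence converted to Alexa 488 dye-equivalent concentration via an on-plate six-point A488 standard curve.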
# A647 fluor: A647 region autofluorescence. AID 592. 59,000 tested, under 10 active. max dye-equivalent concentration, M. Compound fluorescence, A647 channel (570/671 nm), Tris buffer; active means above 1 µM dye equivalent; inconclusive means 0.1 to 1 µM; inactive means 0.1 µM or less;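 further: values scaled relative to a standard on each plate; highest value over a series up to 38 µM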
#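 Compound fluorescence was measured in 100 mM Tris buffer, pH 8.0, after 15 min at room temperature, using 570 nm excitation and 671 nm emission filters. Signal was normalized to a per-plate Alexa 647 standard curve and expressed as dye-equivalent concentration at each compound concentration.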
# Resorufin autofl: compound fluoresces in the resorufin spectral region; Compound fluorescence, resorufin region 547/598 nm, buffer; stronger effect = higher value; max dye-equivalent concentration, M; hit rate 0.04% among 59,000; active = above 10 nM dye equivalent; inconclusive = 1 to 10 nM; inactive = 1 nM or less; a few of its hits are not listed in these tables; further: highest value over a series up to 38 µM
#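 Compounds in 100 mM Tris, pH 8.0, incubated 15 min at room temperature, then fluorescence read at 547 nm excitation/598 nm emission. Signal converted to dye-equivalent concentration via an on-plate six-point resorufin standard curve, per compound concentration.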
# TSHR agonist: agonists of human thyroid stimulating hormone receptor; P16473; HEK293-CNG-TSHR cells (CNG channel as cAMP sensor), membrane potential dye, cAMP; Potency, µM (top dose mostly 57.1 µM), for the others: at the top dose activation, usual class: activators; hit rate 0.48% among 73,000; active = well fitted activation curve of enough size with the parental cells flat; inconclusive = any curve in the parental cells; inactive = parental cells flat and receptor cells flat or falling; further: potency means the concentration at half of the fitted maximal effect; % of control where 0% means no effect; weak receptor curves with flat parental cells got no call and are not listed
# Target sequence (P16473 whole entry, looked up): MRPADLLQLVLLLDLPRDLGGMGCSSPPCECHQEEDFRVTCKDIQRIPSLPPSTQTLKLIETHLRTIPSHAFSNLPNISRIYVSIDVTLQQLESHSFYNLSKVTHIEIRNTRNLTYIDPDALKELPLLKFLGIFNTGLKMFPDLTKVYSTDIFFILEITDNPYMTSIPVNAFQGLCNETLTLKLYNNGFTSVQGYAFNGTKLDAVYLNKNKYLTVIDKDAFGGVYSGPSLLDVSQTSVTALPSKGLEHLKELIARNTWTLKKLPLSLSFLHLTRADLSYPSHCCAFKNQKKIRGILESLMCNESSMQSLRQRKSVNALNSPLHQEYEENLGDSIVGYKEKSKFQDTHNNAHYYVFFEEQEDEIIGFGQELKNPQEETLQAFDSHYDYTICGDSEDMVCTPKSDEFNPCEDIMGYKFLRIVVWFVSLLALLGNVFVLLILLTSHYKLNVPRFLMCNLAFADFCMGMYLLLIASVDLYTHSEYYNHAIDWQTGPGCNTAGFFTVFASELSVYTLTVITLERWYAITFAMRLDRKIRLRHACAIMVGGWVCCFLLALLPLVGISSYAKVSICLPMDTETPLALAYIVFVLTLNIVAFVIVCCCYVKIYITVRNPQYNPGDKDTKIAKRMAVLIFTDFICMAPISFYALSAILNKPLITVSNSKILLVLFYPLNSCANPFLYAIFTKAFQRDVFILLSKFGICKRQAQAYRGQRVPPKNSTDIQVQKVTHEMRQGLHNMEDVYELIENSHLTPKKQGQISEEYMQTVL
#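 cAMP rise detected as CNG-channel membrane depolarization by fluorescent dye (emission 590 nm), 30 min after compound, following 60 min dye loading containing 100 uM RO 20-1724 at room temperature. Cells: TSHR/CNG HEK 293, with parental CNG HEK 293 as control.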
# Active calls of the source: *; i = inactive; ? = inconclusive; . = no result given; [ ] = another dose, or the depositor's remark. Not all compounds are listed. The share of hits here may be higher or lower than overall.
cpd	Compound	A647 fluor	A488 autofl	Resorufin autofl	TSHR agonist	AID923
1	CC(NC(=O)Cc1ccsc1)c1ccc(S(N)(=O)=O)cc1 (centres undefined)	4.6e-09	i	i	-0.5%	0.0%
2	Cc1c(Cl)cccc1N(CC(=O)N1CCCCCC1)S(C)(=O)=O	1.22e-08	i	i	3.7%	0.0%
3	C=CCC(=O)OCC(=O)Nc1ccc(Oc2ccccc2)cc1	1e-09	i	i	-8.2%	0.5%
4	CN1CCN(C(=O)CSc2nc(-c3cccs3)ccc2C#N)CC1	7.57e-08	i	i	.	.
5	COC(=O)c1cc(/C=C/c2ccccc2)on1	5.6e-09	i	i	0.8%	0.4%
6	O=C(NCC(c1cccnc1)N1CCN(c2ccccc2)CC1)C1CCCCC1 (centres undefined)	3.46e-08	i	i	19.4%	0.6%
7	Cc1cc(C)nc(NC2=NCCN2C(=O)Nc2ccc(Cl)c(Cl)c2)n1	2.49e-08	i	i	20.5%	-0.4%
8	CC(=O)C(C)Oc1ccc2c3c(c(=O)oc2c1)CCCCC3 (centres undefined)	1e-09	i	i	25.1µM*	-5.6%
9	CN(c1ccccc1C(=O)Nc1ccc(S(=O)(=O)N2CCCCC2)cc1)S(C)(=O)=O	1e-09	i	i	-10.4%	0.5%
10	O=C(O)CC(c1ccc(Cl)cc1)n1cccc1 (centres undefined)	5.2e-09	i	i	6.0%	0.3%
11	c1csc(CNc2ncncc2-c2ccoc2)c1	1e-09	i	i	7.6%	5.4%
12	COc1ccc(CNc2ccnc(-c3ccc4c(c3)OCO4)n2)c(OC)c1	2.11e-08	i	i	.	0.5%
13	COC(=O)c1cn(NC(=O)c2cccnc2)c(=O)c2ccccc12	1.39e-08	i	i	?	0.1%
14	CCC(C)NCC(O)COCc1ccc(Cl)cc1 (centres undefined)	5.7e-09	i	i	-2.6%[11.4 µM]	0.4%
15	CNS(=O)(=O)c1ccccc1C(=N)c1ccccc1	5.02e-08	i	i	-0.4%[11.4 µM]	-0.2%[11.5 µM]
16	CC1CCN(C(=O)Cn2cc(C(=O)c3ccco3)c3ccccc32)CC1	5.5e-09	i	i	?	-0.2%
17	COc1ccc(CN2CCC(C(=O)N3CCN(c4ccccc4F)CC3)CC2)cc1OC	.	.	.	6.9%	0.4%
18	O=C(C1CCC(CNc2c(N3CCCCC3)c(=O)c2=O)CC1)N1CCN(c2ccccn2)CC1 (centres undefined)	.	.	.	-1.2%	2.1%
19	COc1ccc(OC)c(CCNC(=O)CC2Oc3ccc(C)cc3NC2=O)c1 (centres undefined)	.	.	.	-1.3%	1.6%
20	CCOc1ccccc1N(CC(=O)OC)S(=O)(=O)c1ccccc1	.	.	.	?	-1.3%
21	O=C(NC1CCCCC1)c1cc2nc3c(c(C(F)(F)F)n2n1)CCCC3	1e-09	i	i	?	-1.2%
22	COc1ccc(NC(=O)Cn2c(C)cc(=O)c3cccc(OC)c32)cc1	1e-09	i	i	0.8%	0.3%
23	COC(=O)N1CCC2(CC1)CCN(c1ccccc1)CC2	5.3e-09	i	i	-2.4%	1.0%
24	O=C(NCc1ccccn1)c1n[nH]c2ccccc12	1.83e-08	i	i	2.7%	-2.0%
25	O=C(O)CC(C(=O)O)n1nc(-c2ccccc2)cc1-c1ccccc1 (centres undefined)	.	.	.	0.1%	0.2%
26	O=C(CN1C(=O)C2(OCCCO2)c2ccccc21)NCc1ccccc1	1.72e-08	i	i	?	1.8%
27	COc1ccc(NCc2nnc(SCC(=O)c3ccc(OC)cc3)n2C)cc1	1.25e-08	i	i	12.1%	-0.1%
28	Cc1ccc(Nc2nc(N)nc(CC#N)n2)cc1	2.5e-09	i	i	-3.9%	-2.2%
29	COc1cc(C2C(C#N)=C(N)Oc3cc(N)ccc32)cc(OC)c1OC (centres undefined)	9.02e-08	i	i	.	.
30	COc1ccc(CCNC(=O)CSCc2n[nH]c(=O)[nH]2)cc1OC	1.94e-08	i	i	-2.1%	-0.6%

# 2 entries from above, with values under each structure:
# Each structure is followed by: A647 fluor, A488 autofl, Resorufin autofl, TSHR agonist, AID923
3: C=CCC(=O)OCC(=O)Nc1ccc(Oc2ccccc2)cc1
  1e-09, i, i, -8.2%, 0.5%
19: COc1ccc(OC)c(CCNC(=O)CC2Oc3ccc(C)cc3NC2=O)c1 (centres undefined)
  ., ., ., -1.3%, 1.6%

# The list goes on:
cpd	Compound	A647 fluor	A488 autofl	Resorufin autofl	TSHR agonist	AID923
31	CN1CCN(C(=O)c2cn(C)c3ccc(S(=O)(=O)N(C)C4CCCCC4)cc3c2=O)CC1	.	.	.	3.9%	-0.5%
32	CCOc1nc(-c2ccccc2)ccc1-c1noc(-c2ccncc2)n1	1.83e-08	i	i	1.4%[11.4 µM]	1.1%
33	Cc1cc(=O)[nH]c(Nc2ccc(C(=O)OC(C)C)cc2)n1	2.67e-08	i	i	-11.7%	0.1%
34	Cc1ccc(C)c(NS(=O)(=O)c2ccc(NC(=O)c3ccco3)cc2)c1	4.06e-08	i	i	22.0%	-2.4%
35	CC(=O)Nc1ccc(NC(=O)c2ccccc2F)cc1	.	.	.	-10.4%[11.4 µM]	0.9%
36	C=CCn1c(SCc2ccccc2)nnc1-c1cccnc1	6.7e-09	i	i	9.7%	0.0%
37	COC(=O)c1cc(OC)c(OC)cc1NC(=O)Cn1nnc(-c2ccccc2Cl)n1	5.1e-09	i	i	?	2.0%
38	Cc1cc(C)nc(NC2=NCC(=O)N2c2cccc(Cl)c2)n1	3.6e-08	i	i	.	.
39	Cc1nc2ccccc2c(=O)n1NC(=O)c1ccccc1Cl	1e-09	i	i	3.8%	2.5%
40	O=C(CC1SCCNC1=O)Nc1cccc(Cl)c1 (centres undefined)	2.37e-08	i	i	-3.1%	-1.0%
41	NC(=O)c1cc(S(=O)(=O)NC2CCCCC2)co1	1e-09	i	i	1.8%	2.1%
42	O=C(OCC#CCSc1nnc(-c2cccc3ccccc23)o1)c1cccs1	1e-09	i	i	?	1.4%
43	Cc1ccc(CCNC(=O)C2CCCN(S(=O)(=O)c3c(C)nn(C)c3C)C2)cc1 (centres undefined)	.	.	.	?	-0.8%
44	O=C(CC(c1ccccc1)c1ccccc1O)NCCN1CCOCC1 (centres undefined)	2.7e-09	i	i	3.9%	-1.1%
45	O=C(c1ccc(N2CCNCC2)cc1)c1cccnc1	2.31e-08	i	i	1.7%	1.1%
46	Cc1ccc(C)c(NS(=O)(=O)c2cc(Br)cnc2N)c1	1.01e-08	i	i	-6.1%	-3.3%
47	O=C(Nc1ccccc1)N1CCSCC1	5.2e-09	i	i	-1.8%	-0.5%
48	Cc1ccc(CNC(=O)c2cn(C3CCCC3)c(=O)c3c2c2ccccc2n3C)o1	1e-09	i	i	.	3.6%
49	CCOC(=O)c1c(C)n(C)c2ccc(OCC(O)CN3CCC(C)CC3)cc12 (centres undefined)	.	.	.	-6.6%	1.1%
50	COc1cc(OC)c(Cl)cc1N	.	.	.	-11.7%	0.6%
51	Cc1occc1C(=O)Nc1ccc2c(c1)OCO2	2.4e-09	i	i	-11.3%	0.6%
52	Cc1cc(C)nc(Nc2ncc(O)n2-c2ccc(C)c(Cl)c2)n1	2.5e-09	i	i	-11.3%	0.9%
53	Clc1ccccc1-c1nc(NCCN2CCOCC2)c2ccccc2n1	1e-09	i	i	.	-0.2%
54	O[C@@](CCN1CCCC1)(c1ccccc1)C1CCCCC1	2e-09	i	i	23.7%[25.6 µM]	-0.2%[25.7 µM]
55	C=CCn1c(CCCNC(=O)C(C)(C)C)nc2ccccc21	.	.	.	10.3%	2.6%
56	O=C(c1ccccc1)N1CCN(Cc2c[nH]c3ccccc23)CC1	1.09e-08	i	i	11.9%	-0.4%
57	COCCNC(=O)C1CCC(Cn2c(=S)[nH]c3ccccc3c2=O)CC1 (centres undefined)	1.1e-09	i	i	14.2%	0.1%
58	S=c1[nH]nc(-c2cccnc2)o1	1e-09	i	i	2.9%	-0.2%
59	CC(=O)c1cccc(NC(=O)N2CCCC2C(=O)Nc2c(C)cccc2C)c1 (centres undefined)	6.1e-09	i	i	-1.4%	-1.1%
60	O=C(OCC(=O)N1CCN(c2ccccc2)CC1)c1ccccn1	6.7e-09	i	i	-3.5%	1.5%

# Remaining list, next part:
cpd	Compound	A647 fluor	A488 autofl	Resorufin autofl	TSHR agonist	AID923
61	O=C(O)Cc1nc2nc3c(c(=O)n2[nH]1)CCCC3	1.9e-09	i	i	-0.4%	0.8%
62	N#Cc1nc(Cc2cccc3ccccc23)oc1N1CCCCC1	1e-09	i	i	11.7%	0.9%
63	O=C(O)C1CSCN1S(=O)(=O)c1cccc2nsnc12 (centres undefined)	1.75e-08	i	i	.	.
64	COc1ccc(S(=O)(=O)Cc2ccc(C(=O)NC3CCCC3)o2)cc1	.	.	.	6.5%	0.9%
65	COc1ccc(N(CC(=O)NC2CCCC2)C(=O)Cn2nnc(-c3ccc(F)cc3)n2)cc1OC	4.3e-09	i	i	7.4%	-1.5%
66	O=C(O)/C=C1\NC(=O)c2ccccc21	.	.	.	-6.0%	0.6%
67	O=c1[nH]c(N2CCc3ccccc3C2)nc2c1CCC2	2.36e-08	i	i	19.6%	-0.5%
68	CC(NO)C(C)(C)NO (centres undefined)	2.46e-08	i	i	2.5%	-1.9%
69	Cn1c(-c2ccc(F)cc2)cnc1NCc1ccc(C#N)cc1	1e-09	i	i	0.0%	0.8%
70	COc1cccc(C(=O)Nc2cc(C)c3c(=O)oc4ccccc4c3n2)c1	.	.	.	-3.0%	3.7%
71	Cc1cc(Nc2ccc(F)cc2C)n2nc(C)nc2n1	.	.	.	5.1%	2.4%
72	COc1ccccc1N1CCN(C/C=C/c2ccc(N(C)C)cc2)CC1	.	.	.	?	-0.7%
73	COc1ccccc1NS(=O)(=O)c1ccc(OC)c(OC)c1	3.5e-09	i	i	-0.3%	0.9%
74	C=CCn1c(=O)c2ccccc2n2c(Sc3nnnn3-c3ccccc3)nnc12	6.6e-09	i	i	-2.7%	-1.2%
75	CCCCSCc1nc2nc(Cl)c(Cl)nc2[nH]1	1.5e-09	i	i	?	-2.5%[11.5 µM]
76	Cc1ccccc1NC(=O)c1ccc(F)c(S(=O)(=O)N2CCN(c3ccccn3)CC2)c1	2.8e-09	i	i	?	-1.9%
77	CC(=O)COc1ccc2c3c(c(=O)oc2c1)CCCC3	4.41e-08	i	i	-11.9%	3.3%
78	C[C@H](CCC(=O)O)[C@H]1CC[C@H]2[C@@H]3C(=O)C[C@@H]4CC(=O)CC[C@]4(C)[C@H]3CC(=O)[C@]12C	1.4e-09	i	i	.	.
79	O=C(NCCN1CCOCC1)C1CCN(c2nc3ccccc3o2)CC1	1.02e-08	i	i	3.3%	3.9%
80	COCCOC(=O)C1=C(C)NC(=O)NC1c1ccc(Cl)cc1 (centres undefined)	.	.	.	15.6%	-0.2%
81	Cn1c(=O)cc(SCC(=O)N2CCCC2)c2ccc(Cl)cc21	2.75e-08	i	i	19.0%[11.4 µM]	0.2%
82	Cc1noc(C)c1C(=O)N1CCC[C@@]2(CCN(C(=O)Nc3cccc(F)c3)C2)C1	3.32e-08	i	i	5.2%	1.8%
83	O=C(O)C1CCN(S(=O)(=O)N2CCOCC2)CC1	1e-09	i	i	.	0.1%
84	COC(=O)c1ccc2[nH]c(C)cc(=O)c2c1	3.21e-08	i	i	1.4%	1.6%
85	COc1ccc2c(Cl)c(C(=O)NC3CCS(=O)(=O)C3)sc2c1 (centres undefined)	2.6e-09	i	i	8.8%	0.4%
86	COC(=O)c1ccccc1NC(=O)c1ccc(-c2ccccc2F)o1	2.7e-09	i	i	27.7%	-0.3%
87	Cc1cc(C)cc(OCC(=O)N(Cc2cccs2)C2CCS(=O)(=O)C2)c1 (centres undefined)	7.4e-09	i	i	10.0%	2.0%
